VDR inh: blocks the human vitamin D receptor | P11473 | VDR-SRC2-3 peptide fluorescence polarization, 2 h | Potency, µM, for the others: max response, negative = inhibition, most hits filed as inhibitors | 400,000 tested, 0.93% active | AID 504847; active = well fitted inhibition curve with a large enough effect; inconclusive = small, poorly fitted or top-dose-only effect, or another doubt; inactive = no such curve, though single readings can be large or run the other way; note: series mostly up to about 120 µM
Target sequence (P11473 whole entry, looked up): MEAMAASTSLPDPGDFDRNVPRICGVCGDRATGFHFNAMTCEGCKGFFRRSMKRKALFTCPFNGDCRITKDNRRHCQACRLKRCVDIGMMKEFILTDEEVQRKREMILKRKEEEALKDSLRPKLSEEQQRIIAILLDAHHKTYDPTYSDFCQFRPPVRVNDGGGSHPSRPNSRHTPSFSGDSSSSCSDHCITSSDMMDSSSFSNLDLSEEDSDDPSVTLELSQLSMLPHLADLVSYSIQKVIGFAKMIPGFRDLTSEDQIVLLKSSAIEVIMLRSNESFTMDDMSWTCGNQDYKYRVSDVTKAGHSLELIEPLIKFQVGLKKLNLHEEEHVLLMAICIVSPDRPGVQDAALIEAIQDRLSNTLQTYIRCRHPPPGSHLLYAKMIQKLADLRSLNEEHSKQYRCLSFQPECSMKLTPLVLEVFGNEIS
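Fluorescence polarization assay measuring small-molecule disruption of VDR binding to the coregulator peptide SRC2-3. Compounds were pin-transferred (23 nl) into the reagent mix and incubated 2 h at room temperature before reading.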
An asterisk follows results filed as active; ? = inconclusive; & = joins results of further samples. % is set by controls: 0 for no effect and ±100 for the full control effect; potency is the fitted concentration of half-maximal effect.

SMILES	VDR inh
CCn1cc(C(=O)O)c(=O)c2cnc(N3CCN(C(=S)NC(=O)c4ccccc4Cl)CC3)nc21	-12%
CCCOc1cccc(C(=O)N(Cc2cccs2)C2CCS(=O)(=O)C2)c1 (stereo not drawn)	-2%
O=C(O)/C=C/c1ccc2noc(-c3ccccc3)c2c1	-11%
CCOC(=O)N1CCC(NC(=O)c2cnn3ccccc23)CC1	1%
COc1ccc(C2CC(=O)Nc3cc(OC)c(OC)cc32)cc1Br (stereo not drawn)	-1%
Cc1cccc(Cc2c(C)nc3nc(SCC(=O)NCc4ccco4)nn3c2C)c1	-5%
Cc1c(Cc2ccccc2)c(=O)oc2c(C)c(OCC(=O)NCc3ccccn3)ccc12	7%
CC(C)CCn1cnc2c(sc3nc4c(cc32)CSC(C)(C)C4)c1=O	-11%
CC(C)c1cc(C(C)C)c(S(=O)(=O)N2c3ccccc3[C@@]3(Br)C[C@H]4C(=O)N[C@@H](Cc5ccccc5)C(=O)N4[C@@H]23)c(C(C)C)c1	-12%
C=CCN1C(=O)/C(=C\c2cc(Br)c(OCc3ccccn3)c(OC)c2)SC1=S	-18%
COc1cccc(Cn2c(=O)c3[nH]cnc3n(-c3ccccc3C)c2=O)c1	3%
CSc1ccccc1NC(=O)CN(C)CC(=O)c1c(C)[nH]c2ccccc12	-9%
CCCC(=O)N(CCN1CCOCC1)c1nc2c(OCC)cccc2s1	-29%
COc1ccc(/C=N/NC(=O)CSCc2ccc([N+](=O)[O-])cc2)cc1OC	-8%
CC(C)(C)c1ccc(C(=O)Nc2c(C(=O)c3ccc(F)cc3)oc3ccccc23)cc1	-16%
COc1ccc(N2CCN(c3ncnc4onc(C)c34)CC2)cc1	7%
C=CCN(CC=C)S(=O)(=O)c1ccc(NC(=S)NC(=O)Cc2ccc(OC)cc2)cc1	0%
O=C1CCCC2[C@@H]3CCC[N@+]4([O-])CCC[C@H](CN12)C34 (stereo partly drawn)	2%
CC(=O)N1CCc2cc(S(=O)(=O)CCC(=O)N(C)c3cc(C)ccc3C)ccc21	-9%
CC(C)c1ccc2c(c1)C(N1CCNCC1)Cc1ccc(F)cc1S2 (stereo not drawn)	27%
Cc1nnc(SCC(=O)Nc2ncc(Cc3ccc(F)cc3)s2)n1N	2%
CN(C)S(=O)(=O)c1ccc2nnn(OCC(=O)NC34CC5CC(CC(C5)C3)C4)c2c1	-1%
Cc1ccc(/C=C2/SC(=O)NC2=S)o1	35µM*
Cc1noc(C)c1COC(=O)c1csc2c1CCCC2	10%
COC(=O)\C(C(C)=O)=C(/C=C/C=C/C=C/N(C)C)N(C)C	5%
SMILES	VDR inh
C=C(C)C1CC=C(C)/C(=N/NC(=O)c2cccs2)C1 (stereo not drawn)	-27%
CCN/N=C(\Cc1nc2ccccc2[nH]1)c1ccccc1	-18%
CCOC(=O)/C=C1/SCC(=O)N1CC(=O)NC12CC3CC(CC(C3)C1)C2	5%
O=C(NCCN1CCOCC1)C1CCCN(S(=O)(=O)c2ccc(F)cc2)C1 (stereo not drawn)	1%
Cc1sc2nc(SCc3nc(-c4ccccc4)no3)n(-c3ccccc3)c(=O)c2c1C	11%
CS(=O)(=O)n1nc(-c2ccc(Cl)cc2)nc1SCc1ccccc1	20%
Cc1ccc(/C=C2\SC(=S)N(c3c(C)n(C)n(-c4ccccc4)c3=O)C2=O)cc1	-6%
CN(C(=O)Nc1ccccc1)n1cnc2ccccc2c1=O	7%
Cc1ccc(C)c(S(=O)(=O)N2CCN(C(=O)C(C)Sc3ccccc3)CC2)c1 (stereo not drawn)	4%
Cc1cnc(C(=O)Nc2ccc(C)c(S(=O)(=O)N3CCCCC3)c2)cn1	-8%
COc1ccc(O)c(CN2CCC(n3nccc3NC(=O)c3ccccc3Cl)CC2)c1	2%
CN(Cc1ccccc1)C(=O)c1cccc(NC(=O)Cc2ccc(NC(=O)C3CCN(C(=O)C4CCCCC4)CC3)cc2)c1	-6%
COc1ccc2c(OC)c3ccoc3nc2c1OC	-20%&1%
Cc1ccc(NC(=O)c2ccc3c(c2)CCN3S(C)(=O)=O)c(C)c1	-12%
CCOC(=O)c1c(C)[nH]c(C(=O)OCc2ccccc2)c1C	9%
S=C(NCCc1ccccn1)Nc1cccc(Cl)c1	3%
O=C(CCCOc1ccc(Cl)cc1Cl)Nc1ccc(O)cc1C(=O)O	-15%
CN(C)N=Nc1nc2c(c(=O)n(C)c(=O)n2C)n1CC1CO1 (stereo not drawn)	-9%
CCOC(=O)c1[nH]c2ccc(OC)cc2c1NC(=S)N1CCN(C(=O)OCC)CC1	-3%
COc1ccc(NS(=O)(=O)c2ccc3[nH]c4c(c3c2)CCCC4)cc1Cl	18%
O=C(NC1CCCC1)C(NS(=O)(=O)c1ccc(Br)s1)c1ccccc1 (stereo not drawn)	-23%
COC(=O)C1=C(C)Nc2c(c(=O)n(C)c(=O)n2C)C1c1cccs1 (stereo not drawn)	15%
O=C(NCCN1CCOCC1)C1CCC(CNS(=O)(=O)c2ccccc2)CC1 (stereo not drawn)	-16%
CC(Sc1ccccc1)C(=O)NCC1COc2ccccc2O1 (stereo not drawn)	-1%
O=C1c2ccccc2NC(c2cc(Br)c3c(c2)OCO3)N1Cc1ccco1 (stereo not drawn)	-19%
SMILES	VDR inh
CC(=O)Nc1cccc(-c2cn3ccc(C)cc3n2)c1	1%
O=C(Nc1nnc(-c2ccc(Br)cc2)o1)c1cccc(N2C(=O)CCC2=O)c1	-14%
CCN(CC)c1ccc(C(=C2C=CC(=[N+](CC)Cc3cccc(S(=O)(=O)[O-])c3)C=C2)c2ccc(N(CC)Cc3cccc(S(=O)(=O)O)c3)cc2)cc1	13µM*
CN(C)C(CNC(=S)Nc1ccc(Cl)cc1)c1cccnc1 (stereo not drawn)	-5%
Cc1ccc2c(c1)N(C(=O)N1CCC(C(=O)NCCc3ccccc3)CC1)CC(C)O2 (stereo not drawn)	9%
CCn1cc(C(=O)NC(C)C23CC4CC(CC(C4)C2)C3)cn1 (stereo not drawn)	-15%
COc1ccc(NC(=O)c2cc3nc(-c4ccccc4)cc(-c4ccccc4)n3n2)c(OC)c1	-2%
COC(=O)[C@]1(Cc2ccccc2)N[C@H](CN(C)C(=O)NC(C)C)[C@@H]2C(=O)N(Cc3ccccc3)C(=O)[C@@H]21	-21%
O=C(Cn1nnc(-c2cc(Cl)ccc2-n2cnnn2)n1)N1CCCc2ccccc21	2%
COc1ccc(S(=O)(=O)NC2CC2)cc1Br	-6%
O=C(CSc1nc2ccccc2c(=O)n1CCCN1CCOCC1)NC12CC3CC(CC(C3)C1)C2	-5%
O=C(COC(=O)c1cccs1)Nc1ccc(F)c(F)c1	-10%
COc1ccc(CN(CC2CCC(C(=O)O)CC2)C(=S)Nc2ccc(C)c(Cl)c2)cc1 (stereo not drawn)	-4%
C=CCn1c(C)cc(C(=O)COC(=O)CNC(=O)c2ccccc2)c1C	1%
CCCNC(=O)C1CCN(S(=O)(=O)c2ccc3c(c2)OCCO3)CC1	-22%
O=c1[nH]c(C2CCN(S(=O)(=O)c3ccc([N+](=O)[O-])cc3)CC2)nc2c1nnn2Cc1ccccc1	-11%
CC1(C)CC(=O)C2=C(C1)N=C1SCCC(=O)N1C2c1ccccc1 (stereo not drawn)	?
O=C(NCc1ccncc1)C1CCN(S(=O)(=O)c2ccc(F)cc2)CC1	-6%
Cc1ccc(C)c(S(=O)(=O)N2CCCCC2CCNC(=O)C(=O)NCCc2ccco2)c1 (stereo not drawn)	3%
O=C(CSc1ccc2nnc(-c3cccnc3)n2n1)Nc1ccccc1C(F)(F)F	-8%
O=C(NNc1c(Cl)cccc1Cl)c1ccno1	-9%
Cc1nnc(SCC(=O)NC2CCCCC2)n1N	-7%
Cc1c(Cl)cccc1NC(=O)CN1CCN(CCN=CC2=C(O)CC(c3ccccc3)CC2=O)CC1 (stereo not drawn)	-10%
Cc1ccc(C(=O)Nc2ccc3nc(N4CCCCC4)cc(C)c3c2)cc1F	-4%
CCOC(=O)N1C=CC(C)=C[C@@H]2[C@@H](N3C(=O)c4ccccc4C3=O)C(=O)N21	-20%
SMILES	VDR inh
Cc1cccc(NCc2nc(SCC(=O)Nc3ccccc3)n[nH]2)c1	-1%
COc1ccc(N2C(=O)CC(C3CCCO3)C2=O)cc1 (stereo not drawn)	-2%
O=C1NC(=S)N/C1=C\c1cccnc1	-17%
Cc1cccc(NC(=O)C2CCN(c3nc(C)cc(C)n3)CC2)c1	-1%
Cc1cccc(C(=O)Nc2cccc(NC(=O)c3ccccc3)c2)c1	4%
COc1cccc(CNc2nnnn2C)c1OC	-1%
NC(=O)NCCC[C@H](N)C(=O)O	-6%
Cc1ccc(NC(=O)/C(C#N)=C/c2cc(C)n(-c3ccc(N4CCOCC4)c([N+](=O)[O-])c3)c2C)c(C)c1	5%
Cc1ccc(-c2cn3c(n2)sc2cc(C(=O)NCCCc4ccccc4)ccc23)cc1	5%
CCCn1ncc(OC)c(Cl)c1=O	10%
CC(N)c1ccc(Cl)cc1Cl (stereo not drawn)	?
Cc1ccc(N=Cc2cc(Cc3ccccc3Cl)cc([N+](=O)[O-])c2O)c(O)c1	-14%
O=C(OCc1nnc(-c2ccccc2)o1)c1ccc(-n2cnnn2)cc1	15%
CN(C)C(=O)c1nc2ccc(Cl)cn2c1CN1CCCC(OCc2ccccc2)C1 (stereo not drawn)	-7%
CCN(C(=O)CSc1nnc(Nc2cccc(C)c2C)s1)C1CCS(=O)(=O)C1 (stereo not drawn)	0%
Nc1c2c(nc3ccc(Br)cc13)N(Cc1ccccc1)CC2	-7%
CC(=O)c1ccc(N2CCN(C(=O)c3cc(-c4ccc5c(c4)OCO5)nc4ccccc34)CC2)cc1	8%
CCCCOC(=O)Cc1c(O)c2ccccc2[nH]c1=O	7%
N#CCCn1cc(CNCc2cccnc2)c(-c2ccccc2)n1	-10%
CN(Cc1c(F)cccc1Cl)C(=O)c1ccc2ccccc2n1	-16%
NC(=O)c1ccccc1NC(=O)Nc1ccc(F)c(Cl)c1	-2%
Cc1ccc(CSc2nnc(C)c(=O)n2N)cc1	9%
Nc1cc[n+](CC(=O)c2ccc3c(c2)OCCO3)cc1	7%
O=C(COC(=O)c1ccc(O)cc1O)NC(=O)c1ccccc1	10%
COc1ccc(NC(=O)c2cc3c(=O)n4ccccc4nc3n2C)c(OC)c1	6%

2 of the compounds above, with bars between the fields:
SMILES | VDR inh
CCOC(=O)/C=C1/SCC(=O)N1CC(=O)NC12CC3CC(CC(C3)C1)C2 | 5%
O=C(NCCN1CCOCC1)C1CCCN(S(=O)(=O)c2ccc(F)cc2)C1 (stereo not drawn) | 1%

Next records follow.
SMILES	VDR inh
N#CCCN(Cc1cccnc1)S(=O)(=O)c1ccc2ccccc2c1	6%
O=C(CSc1nc2c(c(=O)n1-c1ccccc1)SCC2)N1CCOCC1	2%
Cc1ccc(CN(Cc2ccco2)C(=O)c2cccc(C)c2)cc1	14%
CCCc1cc(=O)[nH]c(SCC(=O)N2CCc3ccccc32)n1	-3%
O=C(C[n+]1ccc(/C=N/O)cc1)NCc1ccccc1	1%
NS(=O)(=O)c1cccc(-n2cnnn2)c1	9%
Cc1cc(C)n(CCc2nc(-c3ccc(F)cc3)cs2)n1	-8%
COCCNC(=O)c1c[nH]c2ccc(S(=O)(=O)N(C)c3ccc(C)c(C)c3)cc2c1=O	-21%
Cc1cc(C)c(S(=O)(=O)Nc2ccc[nH]c2=O)c(C)c1	10%
O=C(NCCCl)Nc1ccccc1NS(=O)(=O)c1cccs1	-21%
C=CCn1c(SCc2nc3sc4c(c3c(=O)[nH]2)CCCC4)nc2ccccc2c1=O	-12%
CC(=O)c1cc2c(O)c(O)ccc2o1	5%
O=C(CN1CCCCC1)Nc1ccccc1C(=O)NC1CC1	-7%
O=C(Nc1ccc(F)cc1F)N1CCN(CCc2ccccc2)CC1	-9%
COc1ccc(N2CCN(CCCNC(=O)c3ccc(CS(=O)(=O)c4ccc(OC)cc4)o3)CC2)cc1	2%
CCN1C(=O)C2(C(C#N)=C(N)Oc3n[nH]c(-c4ccccc4)c32)c2ccccc21 (stereo not drawn)	-3%
Nc1nnnn1/N=C/c1ccc(O)cc1	-4%
CC(C)c1ccc2[nH]c(O)c(N=NC(=O)c3cccc(S(=O)(=O)N4CCCCC4)c3)c2c1	0%
O=C(Nc1ccccc1Cl)O/N=C(/c1ccccc1)c1ccccn1	-6%
Cc1cc(/C=C(\C#N)C(=O)Nc2ccccc2)c(C)n1-c1ccc2c(c1)OCO2	12%
COc1ccc(/C=C2\CCn3c2nc2cc(C(=O)O)ccc2c3=O)cc1OC	-11%

Structures from the list above containing an NH in an aromatic ring (15):
SMILES	VDR inh
COc1cccc(Cn2c(=O)c3[nH]cnc3n(-c3ccccc3C)c2=O)c1	3%
CSc1ccccc1NC(=O)CN(C)CC(=O)c1c(C)[nH]c2ccccc12	-9%
CCN/N=C(\Cc1nc2ccccc2[nH]1)c1ccccc1	-18%
CCOC(=O)c1c(C)[nH]c(C(=O)OCc2ccccc2)c1C	9%
CCOC(=O)c1[nH]c2ccc(OC)cc2c1NC(=S)N1CCN(C(=O)OCC)CC1	-3%
COc1ccc(NS(=O)(=O)c2ccc3[nH]c4c(c3c2)CCCC4)cc1Cl	18%
O=c1[nH]c(C2CCN(S(=O)(=O)c3ccc([N+](=O)[O-])cc3)CC2)nc2c1nnn2Cc1ccccc1	-11%
Cc1cccc(NCc2nc(SCC(=O)Nc3ccccc3)n[nH]2)c1	-1%
CCCCOC(=O)Cc1c(O)c2ccccc2[nH]c1=O	7%
CCCc1cc(=O)[nH]c(SCC(=O)N2CCc3ccccc32)n1	-3%
COCCNC(=O)c1c[nH]c2ccc(S(=O)(=O)N(C)c3ccc(C)c(C)c3)cc2c1=O	-21%
Cc1cc(C)c(S(=O)(=O)Nc2ccc[nH]c2=O)c(C)c1	10%
C=CCn1c(SCc2nc3sc4c(c3c(=O)[nH]2)CCCC4)nc2ccccc2c1=O	-12%
CCN1C(=O)C2(C(C#N)=C(N)Oc3n[nH]c(-c4ccccc4)c32)c2ccccc21 (stereo not drawn)	-3%
CC(C)c1ccc2[nH]c(O)c(N=NC(=O)c3cccc(S(=O)(=O)N4CCCCC4)c3)c2c1	0%

Bioassay records deposited in PubChem BioAssay by National Center for Advancing Translational Sciences (NCATS).

Some of the compounds tested; count on the stated rates, not on these rows.
